Vaccinia Venus: qHTS for Stage-Specific Inhibitors of Vaccinia Orthopoxvirus: Venus Reporter Primary qHTS; Vaccinia virus Venus reporter expression, fluorescence; hit rate 0.46% among 330,000; AID 720580, 2013; Potency, µM (titrated, usually from 36.5 µM), for the others: at the highest dose activity change, negative = inhibition, usual class: inhibitors; active means well fitted inhibition curve with a large enough effect; inconclusive means small, poorly fitted or top-dose-only effect; inactive means no such curve, though single readings can be large or run the other way; tested in A549 cells; also: nearly all actives have a fitted effect of over 30% in size; inactives centre near -10
Vaccinia mCherry: qHTS for Stage-Specific Inhibitors of Vaccinia Orthopoxvirus: mCherry Reporter Primary qHTS; Vaccinia virus mCherry reporter infection, fluorescence; about a quarter of the inactives have no number; hit rate 0.63% among 310,000; AID 720579, 2013; Potency, µM (top dose mostly 36.5 µM), inactives show top-dose activity change, negative = inhibition, most hits filed as inhibitors; active = well fitted inhibition curve with a large enough effect; inconclusive = small, poorly fitted or top-dose-only effect; inactive = no such curve, though single readings can be large or run the other way; tested in A549 cells; also: nearly all actives have a fitted effect of over 35% in size; inactives centre near -10
* hit, by the source's call; i = inactive; ? = inconclusive; · = not tested or not shown; [ ] = another dose, or the depositor's remark. % is scaled to controls: 0 for no effect and ±100 for the full control effect; potency is read from the fitted curve at half-maximal effect.

compound	Vaccinia Venus	Vaccinia mCherry
Cn1c(N)c(C(=O)COC(=O)CC(NC(N)=O)c2ccc(Cl)cc2)c(=O)n(C)c1=O (stereo not given)	-20%	-5%
COc1ccc(-c2csc(N(CCCN(C)C)C(=O)c3ccc(Br)cc3)n2)cc1	-11%	-5%
O=C(CN1CCN(S(=O)(=O)c2cc(Cl)ccc2Cl)CC1)Nc1cccc(F)c1	-8%	-12%
Nc1nc2n[nH]nc2c(=O)[nH]1	?	?
COCCNc1oc(-c2cccs2)nc1S(=O)(=O)c1ccc(C)cc1	-4%	-1%
COc1ccc(CCN(C)CCN2C(=O)c3ccccc3C2=O)cc1OC	-10%	·
Cc1cc(NC(=O)CSCC(=O)NCc2cccc(C(F)(F)F)c2)no1	-19%	i
COc1ccc(-n2c(C)nn(CCOc3ccccc3)c2=O)cc1	-7%	-16%
Cc1ccc(N2CC(C(=O)NCc3nnnn3-c3ccc(C)c(C)c3)CC2=O)cc1 (stereo not given)	-10%	-9%
COC(=O)C(NS(=O)(=O)c1ccc(N2CCCC2=O)cc1)c1ccccc1 (stereo not given)	-10%	i
CC(=O)Nc1cccc(Oc2nc(C(F)(F)F)nc3ccccc23)c1	-6%	-16%
O=C1CC(c2ccc(S(=O)(=O)N3CCN(c4ccccc4)CC3)cc2)CN1 (stereo not given)	-1%	-14%
Cc1c(Cl)cccc1N1C(N)=C(C#N)C(c2cc(CN3CCOCC3)cs2)C2=C1CCCC2=O (stereo not given)	-2%	-10%
COc1ccc(C(=O)c2oc3ccccc3c2NC(=O)COc2c(C)cc(C)cc2C)cc1	4%	1%
Cc1nc(C(=O)NC(C)C)nn1-c1cc(Cl)cc(Cl)c1	3%	i
Cc1ccc(Cl)cc1NC(=S)N(Cc1cccnc1)Cc1ccccc1Cl	-10%	-13%

Next part; it opens with the 6 that closed the last part.
compound	Vaccinia Venus	Vaccinia mCherry
CC(=O)Nc1cccc(Oc2nc(C(F)(F)F)nc3ccccc23)c1	-6%	-16%
O=C1CC(c2ccc(S(=O)(=O)N3CCN(c4ccccc4)CC3)cc2)CN1 (stereo not given)	-1%	-14%
Cc1c(Cl)cccc1N1C(N)=C(C#N)C(c2cc(CN3CCOCC3)cs2)C2=C1CCCC2=O (stereo not given)	-2%	-10%
COc1ccc(C(=O)c2oc3ccccc3c2NC(=O)COc2c(C)cc(C)cc2C)cc1	4%	1%
Cc1nc(C(=O)NC(C)C)nn1-c1cc(Cl)cc(Cl)c1	3%	i
Cc1ccc(Cl)cc1NC(=S)N(Cc1cccnc1)Cc1ccccc1Cl	-10%	-13%
COc1ccc(-c2nc(CS(=O)CC(=O)NCCc3ccc(OC)c(OC)c3)c(C)o2)cc1 (stereo not given)	-10%	-10%
O=C(Cn1ncc2c(=O)oc3ccccc3c21)NCCC1=CCCCC1	-16%	-22%
C=CCOc1ccc(Cl)cc1-c1noc(-c2csc([C@H]3C[C@H](O)[C@@H](CO)O3)n2)n1	-10%	-13%
O=C(NC(=S)Nc1ccc2oc(=O)ccc2c1)c1ccccc1F	-11%	-26%
COc1ccc(CNC(=O)C(=O)NCc2ccncc2)cc1	-26%	i
COCCNC(=O)c1c(N)n(CCCn2ccnc2)c2nc3ccccc3nc12	-14%	-17%
O=C1CC(c2ccccc2)CN1S(=O)(=O)c1ccccc1 (stereo not given)	4%	4%
O=C(c1ccc(Cl)cc1)N(Cc1ccco1)C1CCS(=O)(=O)C1 (stereo not given)	6%	3%
CSCCC(NC(N)=O)C(=O)NCc1cccc(Cl)c1 (stereo not given)	-15%	-22%
CCN(CC)S(=O)(=O)c1ccc(Cl)c(C(=O)Nc2ccc(Cl)cc2[N+](=O)[O-])c1	-26%	-8%
C=Cc1ccc(Cn2c(C(=O)O)c(CNCc3cccs3)c3ccc(C)cc32)cc1	-24%	-13%
COc1cc(C2(c3ccc(O)c(OC)c3)C(=O)N(C)c3ccc(Br)cc32)ccc1O	-8%	-30%
Cc1cccc(C)c1NC(=O)CC(NCCc1ccccc1)C(=O)O (stereo not given)	-9%	i
CCS(=O)(=O)N1CCc2cc(C(=O)Nc3cccc(C(C)=O)c3)ccc21	-16%	-11%
Cc1ccccc1C(=O)NC1CCN(CC(=O)Nc2ccc3c(c2)OCO3)CC1	-13%	-12%
Cc1ccc(CNC(=O)COc2ccc(C)nc2[N+](=O)[O-])cc1	-5%	i
CC(C)(C)OC(=O)NCCc1nc(NC(=O)OCc2ccccc2)sc1C(=O)O	1%	-15%
N#Cc1cccc(Nc2c3c(nc4ccccc24)CCC3)c1	-19%	-13%
C[C@@H]1COC(=O)[C@@H](CC(=O)OC(C)(C)C)C/C=C\C[C@@H](CC(=O)NCCO)C(=O)N1	-11%	-15%
O=C(CN1CCCC1)Nc1ccc2c(c1)CCC2	-10%	-3%
CC1CCCC(NC(=O)c2cc(-c3ccncc3)nc3ccccc23)C1C (stereo not given)	-12%	-3%
Cc1ccc(NC2=C(c3ccc(C(F)(F)F)cc3)C(=O)c3ccccc32)cc1C	-15%	-16%
CC1(C(=O)NC2CCCCCC2)CCN1C(=O)C1(c2ccccc2)CC1 (stereo not given)	-10%	i
CCN(C(=O)Cn1c(C(=O)OC)cc2sc(Cl)cc21)c1cccc(C)c1	-4%	-14%
Cc1ccc(Nc2c(-c3ccccc3O)nc3cc(C)ccn23)cc1	-3%[7.34 µM]	-8%[7.34 µM]
COc1cc2c(C)nc3c(c(C)nn3-c3ccccc3)c2cc1OC	0%	-7%
O=C(C1=C(O)C(=O)N(CCCN2CCOCC2)C1c1ccccn1)c1cc2ccccc2o1 (stereo not given)	-17%	-23%
CCOC(=O)CC1C(=O)NCCN1C(=O)Nc1ccc(Cl)cc1 (stereo not given)	5%	·
CC(C)C[C@H]1CNC(=S)N1CC1CCCN1C[C@H](Cc1ccc(O)cc1)N1C[C@H](Cc2ccccc2)N(CC2CCCCCC2)C1=S (stereo not given in full)	-28%	?
O=C(Nc1ccccc1)N1CCc2c([nH]c3ccccc23)C1C(F)(F)F (stereo not given)	?	?
Cc1ccccc1C1CC(=O)Nc2ccc3ccccc3c21 (stereo not given)	?	?
COc1ccc(-c2nc(SCC(=O)NCc3nc4ccccc4n3C)n3[nH]c(=O)cc3n2)cc1	3%	-5%
COC(=O)C1=C(c2ccc(F)cc2OCc2ccccc2)C[C@@H]2CC[C@H]1N2C(=O)NCCN1CCOCC1	-16%	-22%
COc1cccc(NC(=S)NC(=O)/C=C/c2ccco2)c1	-23%	?
O=C(c1cc(Br)c(Br)s1)N1CCN(C/C=C/c2ccccc2)CC1	-6%	0%
O=[N+]([O-])c1ccccc1S(=O)(=O)Nc1ccc(-c2ccc(N3CCOCC3)nn2)cc1	-16%	-22%
CCOC(=O)C1CCCN(Cc2nc(N)nc(Nc3ccccc3OC)n2)C1 (stereo not given)	-30%	-6%
CN1CCN(C(=O)c2ccc3c(c2)S(=O)(=O)c2ccccc2C3=O)CC1	-17%	?
CCc1c(C)nc2nncn2c1Nc1ccc(C)c(F)c1	-15%	-11%
Clc1ccc(OCc2nc(-c3ccncc3)no2)cc1	-14%	-28%
CCCN1CCC2(CC1)NC(CO)(CO)CO2	-7%	·
CC(C)(C)c1ccc(S(=O)(=O)NCC(=O)N2CCN(Cc3ccccc3)CC2)cc1	-17%	-4%
Cc1ccc(Nc2nc(C)nc(N)c2S(=O)(=O)c2ccccc2)cc1	5%	4%
O=C(N/C(=C/c1cccc([N+](=O)[O-])c1)C(=O)N1CCOCC1)c1ccccc1Br	-11%	i
COc1ccc(/C=N/NC(=O)c2ccccc2O)cc1Cn1cc([N+](=O)[O-])cn1	0%	i
Cc1ccc(OC(=O)CCC(=O)Nc2ccc(C(N)=O)cc2)cc1	4%	i
CN(C(=O)c1ccncc1)C1CCCCC1	-8%	i
O=C1c2ccccc2C(=O)N1c1ccc(Br)c2cccnc12	11%	i
S=C(NCCc1ccccc1)Nc1ccc(Nc2ccccc2)cc1	-16%	-21%
CCOC(=O)c1ccccc1NC(=O)/C=C/c1cc(OC)c(OC)c(OC)c1	-29%	·
Cc1ccc(C)c(Oc2nc3c(c(=O)n(C)c(=O)n3C)n2Cc2ccccc2)c1	21%	5%
CCOC(=O)Cc1csc(SCC(=O)/C(C#N)=C(\C)N)n1	-8%	-8%
Cc1ccc2onc(CC(=O)N(C)c3ccccc3)c2c1	-3%	0%
CCOc1ccc(OCC)c(S(=O)(=O)NC2CC(C)(C)NC(C)(C)C2)c1	-16%	-20%
Clc1ncccc1-c1nc2ccccc2s1	-5%	-2%
O=C(c1sc(N2CCOCC2)nc1-c1ccccc1)N1CCCCC1	-2%	-11%

(more compounds)
compound	Vaccinia Venus	Vaccinia mCherry
CCC(C)C(=O)N1c2ccccc2C(=C2SC(C(=O)OC)=C(C(=O)OC)S2)C(=S)C1(C)C (stereo not given)	-15%	-23%
O=C(Nc1ccccc1)c1cc(C2CCCCN2S(=O)(=O)c2cccs2)on1 (stereo not given)	-14%	-27%
Cn1c2ccccc2n2c(=O)c(Cl)c(-c3ccccc3)c(C#N)c12	-14%	9%
COCC1=C(C(=O)OC(C)OC(=O)OC(C)C)N2C(=O)[C@@H](NC(=O)/C(=N\OC)c3csc(N)n3)[C@H]2SC1 (stereo not given in full)	-21%	-5%
O=C(O)C1CCCN(S(=O)(=O)c2ccccc2[N+](=O)[O-])C1 (stereo not given)	0%	i
CC(C)(C)c1ccc(C(=O)NCC(=O)OCc2cc(=O)n3nc(C4CC4)sc3n2)cc1	-7%	-7%
Cc1cccc(C)c1N1CCN(c2n[nH]c(N)n2)CC1	0%	2%
CCN(CC)C(=O)c1ccc2nc([C@@H]3O[C@H](CO)[C@H](O)[C@H](O)[C@H]3O)[nH]c2c1	-1%	i

Entries above that have an aryl thioether with sulfur outside any ring (2):
compound	Vaccinia Venus	Vaccinia mCherry
COc1ccc(-c2nc(SCC(=O)NCc3nc4ccccc4n3C)n3[nH]c(=O)cc3n2)cc1	3%	-5%
CCOC(=O)Cc1csc(SCC(=O)/C(C#N)=C(\C)N)n1	-8%	-8%

Later entries:
compound	Vaccinia Venus	Vaccinia mCherry
Cc1cccc(C(=O)N2CCc3cc(CNC(=O)CSc4ccccc4)ccc32)c1	-16%	-3%
O=C(Cn1ccc(NC(=O)OCc2ccccc2)nc1=O)NCC1CCCO1 (stereo not given)	-7%	i
Nc1c2c(nn1-c1ccc(F)cc1)CSC2	-2%	0%
Cc1ccc2nc(N(CCN(C)C)C(=O)c3ccc4c(c3)OCCO4)sc2c1	-7%	i
O=C(COC(=O)c1ccc(S(=O)(=O)N2CCOCC2)cc1)NC1CCCC1	-11%	-14%
COc1ccc(OC)c(NCCN2C(=O)c3ccccc3C2=O)c1	-9%	?
CCCc1ccc(Oc2cn[nH]c2-c2ccc(O)c(C)c2O)cc1	-30%	-11%
COc1ccc(C(=O)Nc2ccc3c(c2)Cc2ccccc2-3)cc1	-14%	-12%

An excerpt from above in order of count of non-hydrogen atoms, rising.
compound	Vaccinia Venus	Vaccinia mCherry
N#Cc1cccc(Nc2c3c(nc4ccccc24)CCC3)c1	-19%	-13%
CCOC(=O)CC1C(=O)NCCN1C(=O)Nc1ccc(Cl)cc1 (stereo not given)	5%	·
CC(C)C[C@H]1CNC(=S)N1CC1CCCN1C[C@H](Cc1ccc(O)cc1)N1C[C@H](Cc2ccccc2)N(CC2CCCCCC2)C1=S (stereo not given in full)	-28%	?

The list goes on:
compound	Vaccinia Venus	Vaccinia mCherry
CCn1c(=O)c(=O)n(CC)c2cc(N3CCCCC3)c(NC(=O)c3cccc(OC)c3)cc21	-11%	-17%
CCN1Cc2cccc(C(=O)Nc3ccc(F)cc3)c2C1=O	-6%	-5%
COc1ccc(CC(=O)N/N=C(\C)CC(=O)Nc2ccc(N(C)C)cc2)cc1OC	-8%	?
COc1cc(NC(=O)C2C3C=CC(C3)C2C(=O)O)c(OC)cc1Cl (stereo not given)	-5%	i
O=S(=O)(NCCc1csc2nc(-c3ccccc3)nn12)c1cccs1	-15%	-10%
CCc1ccccc1NC(=O)CN(C)S(=O)(=O)c1cccc2nsnc12	-11%	-12%
COc1ccc(-c2nc3cc(NC(=O)c4cc5ccccc5o4)ccc3o2)cc1	1%	-15%
CCc1nc2c(OCc3ccc(C(F)(F)F)cc3)cccn2c1N(C)C(=O)c1ccc(C)cc1	-7%	-13%
COc1ccc(C)cc1NC(=O)C1CCN(S(=O)(=O)c2ccc3c(c2)C(C)(C)C(=O)N3C)CC1	-6%	-5%
COc1ccc(/C=C/C(=O)c2ccc(OC)cc2OC)cc1	-10%	?
CC(c1n[nH]c(=S)n1-c1ccccc1)N1CCCCC1 (stereo not given)	-6%	i
CCCOc1ccc(OCCCCNC(C)CC)cc1 (stereo not given)	-19%	-17%
CCOC(=O)c1cc(-c2ccccc2)n(CCC(=O)N2CCN(c3ccc(OC)cc3)CC2)c1C	-22%	-28%
COc1ccc(-c2cn3c(n2)sc2cc(C(=O)Nc4cccc(OC)c4)ccc23)cc1	7%	9%
O=C(COc1ccccc1-c1nc(-c2ccccc2)no1)Nc1cccc([N+](=O)[O-])c1	?	?
Cc1ccccc1Nc1nc(N)nc(COC(=O)CCS(=O)(=O)c2ccc(Cl)cc2)n1	-29%	?

From PubChem
